Pol eta inh = qHTS for Inhibitors of Polymerase Eta | DNA polymerase eta (Homo sapiens), Q9Y253 | Potency, µM (top dose mostly 114 µM), without a hit: at the top dose activity change, negative = inhibition, actives largely listed as inhibitors | 390,000 compounds, 1.2% hits | recombinant Pol eta, fluorescent DNA replication assay; note: potency is the fitted concentration of half-maximal effect
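Pol eta at 10 nM preincubated with compounds 15 min at room temperature; reaction started with fluorescent substrate (50 nM final) and read kinetically at 0 and 10 min.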
G9a block = qHTS Assay for Inhibitors of Histone Lysine Methyltransferase G9a. Histone-lysine N-methyltransferase EHMT2 (Homo sapiens), Q96KQ7. G9a H3K9 monomethylation, AlphaScreen, 2 h. Potency, µM (top dose mostly 102 µM), for inactives: at the top dose activity, negative = inhibition, hits mostly inhibitors. 350,000 compounds, 8.8% hits; note: potency is the fitted concentration of half-maximal effect; nearly all actives have a fitted effect of over 75% in size
Target sequence (Q96KQ7 913-1193 limits assumed): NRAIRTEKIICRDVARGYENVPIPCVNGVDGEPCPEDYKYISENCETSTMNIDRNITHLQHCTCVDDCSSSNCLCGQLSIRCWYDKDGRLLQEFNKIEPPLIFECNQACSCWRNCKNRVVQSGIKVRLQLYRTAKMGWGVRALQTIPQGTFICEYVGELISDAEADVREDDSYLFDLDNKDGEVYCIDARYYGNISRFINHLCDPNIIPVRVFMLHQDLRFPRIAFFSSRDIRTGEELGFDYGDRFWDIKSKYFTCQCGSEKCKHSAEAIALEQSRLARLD
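Methyltransferase reactions run at room temperature for 2 h (20 nM enzyme, 500 nM biotin-H3K9 peptide, 20 uM SAM) after a 15 min compound preincubation; product detected by AlphaScreen beads and anti-H3K9me1 antibody.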
PI4K2A block = qHTS for small molecular inhibitors of PI4K2A; Phosphatidylinositol 4-kinase type 2-alpha (Homo sapiens), Q9BTU6; AID 1346378, 2018; activity change, negative = inhibition, % at 76.9 µM; purified PI4K2A, ADP-Glo luminescence, 1 h; hits give low values; 420,000 compounds, 0.13% hits; in the data active = activity change below about -50%; inconclusive = mostly about -30% to -49%;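 note: -100% = wells without enzyme as full effect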
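ADP-Glo luminescence measured ADP generated by PI4K2A enzyme (4 ug/mL before mixing) with 1.2 mM PI substrate (pre-mix) and 300 microM ATP (pre-mix). Tris pH7.5 buffer with MgCl2, Triton X-100; 1 h reaction at ambient temperature.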
PGK inhibitor = qHTS Assay to Find Inhibitors of Phosphoglycerate Kinase | PGK/GAPDH coupled, Kinase-Glo luminescence, 60 min | Phosphoglycerate kinase, glycosomal (Trypanosoma brucei brucei), P07378 | 380,000 compounds, 0.043% hits | AID 602233, 2012 | Potency, µM (series often up to 57.5 µM), for the others: top-dose activity change, negative = inhibition, usual class: inhibitors; note: potency is the fitted concentration of half-maximal effect; nearly all actives have a fitted effect of over 60% in size
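Luminescent ATP detection (Kinase-Glo Plus) follows a 60-minute room-temperature incubation, with wells lacking PGK as controls. Buffer: 100 mM TEA (pH 7.6), 5 mM MgCl2, 0.01% Tween-20. Coupling enzyme GAPDH (100 nM final) supplies unstable 1,3-BPG in-well.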
Pin1 inh = qHTS Assay to Find Inhibitors of Pin1. Peptidyl-prolyl cis-trans isomerase NIMA-interacting 1 (Homo sapiens), Q13526. Pin1 FP peptide displacement, HiFluor488, 10 min. AID 504891, 2011. 390,000 compounds, 0.009% hits. Potency, µM (titrated, usually from 115 µM), for the others: at the highest dose activity, negative = inhibition, hits mostly inhibitors; active = well fitted inhibition curve with a large enough effect in the polarisation, with a control signal flat, not every such curve was filed as active; inconclusive = small, poorly fitted or top-dose-only effect, or effect the other way, or a change in a side signal; inactive = no such curve, though single readings can be large or run the other way; the % refers to the polarisation; note: potency is the fitted concentration of half-maximal effect
GLS inhibitor = qHTS for Inhibitors of Glutaminase (GLS); Potency, µM (series often up to 45.5 µM), for the others: at the top dose activity change, negative = inhibition, hits mostly inhibitors; AID 624170, 2012; GLS enzymatic activity, qHTS titration; Glutaminase kidney isoform, mitochondrial (Homo sapiens), O94925; 410,000 compounds, 0.21% hits; note: potency is the fitted concentration of half-maximal effect
Target sequence (O94925 whole entry, looked up, canonical isoform): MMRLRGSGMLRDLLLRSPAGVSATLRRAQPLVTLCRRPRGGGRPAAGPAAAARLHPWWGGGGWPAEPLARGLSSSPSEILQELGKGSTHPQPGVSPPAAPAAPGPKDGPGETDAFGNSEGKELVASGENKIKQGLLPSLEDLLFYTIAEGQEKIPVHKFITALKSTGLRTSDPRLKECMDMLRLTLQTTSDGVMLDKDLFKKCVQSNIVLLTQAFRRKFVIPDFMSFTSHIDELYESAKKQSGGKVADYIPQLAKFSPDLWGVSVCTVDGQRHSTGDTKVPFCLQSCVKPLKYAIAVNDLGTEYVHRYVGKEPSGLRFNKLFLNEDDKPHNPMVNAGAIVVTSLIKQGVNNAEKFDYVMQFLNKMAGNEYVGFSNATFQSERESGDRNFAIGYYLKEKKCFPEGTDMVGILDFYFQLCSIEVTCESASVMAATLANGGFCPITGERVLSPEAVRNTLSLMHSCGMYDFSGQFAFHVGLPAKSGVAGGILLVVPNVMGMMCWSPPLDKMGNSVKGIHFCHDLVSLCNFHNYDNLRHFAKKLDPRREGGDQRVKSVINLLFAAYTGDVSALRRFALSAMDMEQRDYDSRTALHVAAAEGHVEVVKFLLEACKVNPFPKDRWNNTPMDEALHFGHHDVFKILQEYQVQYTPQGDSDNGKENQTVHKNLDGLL
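hKGA; 45 mM KH2PO4 pH 8.2 + 0.02% Tween-20; cpd via pin tool; 1 mM Gln soln; GluOx/HRP/Amplex Red; RT 30 min; fluor. t0 & final.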
* hit, by the source's call; i = inactive; ? = inconclusive; · = no result given; & = joins results of further samples; [ ] = remark or other dose. Unless noted, calls come from the whole dose curve; as a rule, active = well fitted curve in the direction sought with a large enough effect; inconclusive = small, poorly fitted or top-dose-only effect, or another doubt; inactive = no such curve, though single readings can be large; an effect the other way counts as inactive or inconclusive. Unless noted, % is set by controls: 0 for no effect and ±100 for the full control effect. Only part of the results is shown; count on the stated rates, not on these rows.

no.	Pol eta inh	G9a block	PI4K2A block	PGK inhibitor	Pin1 inh	GLS inhibitor	canonical_smiles
1	-2%	2.5µM*	-11	4%	-11%	12%	CCN(CC)CCCNCC(=O)Nc1cc(C)on1
2	-6%	45µM*	-8	-6%	1%	21%	CCCCN(CCCNc1ncnc2nc[nH]c12)c1ccccc1
3	-1%	3.2µM*	10	0%	0%	-12%	c1ccc(COc2cccc(CN3CCN(c4ccccn4)CC3)c2)cc1
4	-11%	35µM*	-9	i	29%	?	FC(F)(F)c1ccc2c(c1)NCC1CCCN21 (stereo not given)
5	-17%	?	3	-4%	0%	0%	C=CCNCCOc1ccc(C(C)(C)c2ccccc2)cc1
6	-12%	0%	-2	i	-2%	-5%	CCC1=NN(C(=O)c2ccc(Cl)cc2)C(O)(c2ccc(C)cc2)C1 (stereo not given)
7	-18%	·	-1	-9%	-12%	2%	CN1CCN(CCCCOc2ccccc2-c2ccccc2)CC1
8	-1%	?	5	-2%	-6%	-3%	O=C(c1cccc(Cl)c1)N1CCN(CCCc2ccccc2)CC1
9	-29%	32µM*	50	-5%	-10%	0%	Cc1cccc(OCCCN2C(=O)C(=O)c3cc(C)ccc32)c1
10	-24%	45µM*	-6	0%	-1%	9%	CN1CCN(c2cc(N3CCc4ccccc4C3)c(F)cc2[N+](=O)[O-])CC1
11	5%	7.9µM*	-21	-13%	-9%	-3%	CC(C)(C)c1cc(CN2CCC(O)CC2)cc(C(C)(C)C)c1O
12	-9%	?	4	4%	3%	15%	OCCN(Cc1ccccc1)Cc1ccc(F)c(F)c1
13	-5%	·	4	-1%	5%	-6%	Cc1ccc(NC(=O)CSc2ccc(-c3ccccn3)nn2)c(C)c1
14	?	32µM*	3	0%	-6%	-13%	O=C(c1ccccc1F)N1CCN(C2CCC(c3ccccc3)CC2)CC1 (stereo not given)
15	-16%	18µM*	1	2%	-15%	-15%	OC1CCCN(CC(O)COC(c2ccccc2)c2ccccc2)C1 (stereo not given)
16	-11%	0%[59 µM]	8	-1%	-7%	-6%	COc1ccc(NC(=O)CSc2ccc3nnc(-c4ccccn4)n3n2)cc1
17	-2%	?	1	3%	-17%	3%	CCN(CC)CCNCC(=O)Nc1ccc(Oc2ccccc2)cc1
18	10%	?	-1	-1%	7%	-15%	S=c1[nH]nc(C2CCCCC2)n1/N=C/c1ccccn1
19	-10%	2µM*	0	·	-8%	5%	Cc1ccc(CN2CCN(Cc3ccccc3C(F)(F)F)CC2)cc1
20	-11%	?	2	i	-1%	-2%	COc1cc(CNCc2ccc3c(c2)OCO3)c([N+](=O)[O-])cc1OC
21	-15%	25%[59 µM]	3	-3%	3%	1%	COc1ccccc1Nc1nc(N)nc(CN2CCN(Cc3ccccc3)CC2)n1
22	-23%	8.9µM*	12	-8%	-10%	-5%	COc1ccc(CNCC2COc3ccccc3O2)cc1 (stereo not given)
23	-9%	6.3µM*	0	6%	-1%	7%	CC(C)CNC(C(=O)Nc1ccc([N+](=O)[O-])cc1Br)c1ccccc1 (stereo not given)
24	-17%	?	-3	1%	0%	1%	O=C(CSc1ccccc1)Nc1nnc(-c2ccco2)o1

Reprinted at random: two compounds from above
no.	Pol eta inh	G9a block	PI4K2A block	PGK inhibitor	Pin1 inh	GLS inhibitor	canonical_smiles
19	-10%	2µM*	0	·	-8%	5%	Cc1ccc(CN2CCN(Cc3ccccc3C(F)(F)F)CC2)cc1
21	-15%	25%[59 µM]	3	-3%	3%	1%	COc1ccccc1Nc1nc(N)nc(CN2CCN(Cc3ccccc3)CC2)n1

Continuation.
no.	Pol eta inh	G9a block	PI4K2A block	PGK inhibitor	Pin1 inh	GLS inhibitor	canonical_smiles
25	-12%	32%	-3	i	-9%	-4%	COc1ccc(-c2nnc(NC(=O)CS(=O)(=O)c3ccc(F)cc3)o2)c(OC)c1
26	-10%	?	-3	-12%	-1%	-4%	C=CCc1cccc(C=Nc2cccn3cc(-c4ccccc4)nc23)c1O
27	-7%	10µM*	2	-8%	-8%	-2%	COc1cc(OC)c(OC)cc1CNCCNC(=O)c1ccco1
28	-21%	2.2µM*	0	-6%	-7%	-2%	CCCCNC(C(=O)Nc1ccc([N+](=O)[O-])cc1Br)c1ccccc1 (stereo not given)
29	-10%	?	4	16%	-1%	6%	CSc1ccc(/C=N/NC(=O)CNc2ccc3ccccc3c2)cc1
30	-9%	·	4	-3%	-1%	-1%	Cc1ccc(OCCCCn2ccnc2)c([N+](=O)[O-])c1
31	-6%	2.8µM*	0	-10%	-4%	22%	CCOc1ccccc1N1CCN(Cc2ccc(OC)c(OC)c2)CC1
32	-14%	·	8	-8%	-4%	-4%	O=C1CC(=C2c3ccccc3-c3ccccc32)C(=O)N1CCN1CCN(c2cccc(Cl)c2)CC1
33	-7%	45µM*	9	-1%	-3%	1%	CC(=O)N1CCN(c2cc(N3CCc4ccccc4C3)c(F)cc2[N+](=O)[O-])CC1
34	5%	·	6	-5%	3%	-3%	CC(O)CNCCOc1ccccc1OCc1ccccc1 (stereo not given)
35	?	34%[0.501 µM]	0	i	6%	12%	Clc1ccc(/C=N/NC(=Nc2ccccc2)c2ccccn2)c(Cl)c1
36	1%	13µM*	0	-2%	-15%	-2%	Cc1ccc([N+](=O)[O-])c(OCCCNCC(C)O)c1 (stereo not given)
37	-10%	7.9µM*	-1	-5%	0%	0%	Clc1cc(Cl)c(OCCCCn2cncn2)c(Cl)c1
38	15%	10µM*	3	-5%	2%	6%	CC(C)(C)OCC(O)CN1CCN(C(=O)c2ccccc2)CC1 (stereo not given)
39	-16%&11%	-12%[59 µM]	-2&1	3%&-4%	0%&4%	3%&-8%	Cc1cc(C)c(NC(=O)CSc2ccc(-c3ccccn3)nn2)c(C)c1
40	2%&-10%	23%	2&2	-3%&-3%	24%&14%	7%&7%	CCOC(=O)c1ccc(NC(=O)CSc2ccc(-c3ccccn3)nn2)cc1
41	1%	?	0	-3%	1%	16%	CCN(CC)CCN1C(=O)C(=O)/C(=C(/O)c2ccc(OC)c(OC)c2)C1c1ccccn1 (stereo not given)
42	-10%	13µM*	1	-10%	-2%	3%	O=C(CN1CCc2ccccc2C1)Nc1ccccc1C(F)(F)F
43	-15%	8.9µM*	0	6%	8%	6%	Cc1ccn2c(Nc3ccc4c(c3)OCCO4)c(-c3ccc(N(C)C)cc3)nc2c1
44	-11%	4.5µM*	7	-8%	-6%	0%	COc1cc(C(=O)N2CCN(Cc3ccccn3)CC2)cc(OC)c1OC
45	-15%	20µM*	3	0%	2%	-4%	COc1cccc(CN2CCN(C(=O)c3cccc(OC)c3)CC2)c1
46	-10%	·	-1	i	-3%	-22%	COC1C(CO)OC(n2cnc3c(=S)nc(N)[nH]c32)C1O (stereo not given)
47	-20%	16µM*	2	-6%	-11%	1%	Cc1ccc(CNc2ncc(-c3ccc4c(c3)OCO4)n2C)cc1
48	-21%	16µM*	-2	3%	-5%	1%	O=C(CN1CCN(c2ncccn2)CC1)N1CCCC1
49	-7%	5%	3	-3%	-4%	1%	O=C(CSc1ccc(-c2ccccn2)nn1)N1CCc2ccccc21
50	-16%	?	0	1%	-12%	11µM*	Cc1nc(C)c(/C(O)=C\c2nc3ccc([N+](=O)[O-])cc3oc2=O)o1
51	-26%	18µM*	6	-5%	1%	2%	Cn1c(-c2cccc([N+](=O)[O-])c2)cnc1NCc1cccc([N+](=O)[O-])c1
52	-9%	?	-2	0%	-3%	2%	O=C(Nc1ncn[nH]1)C(F)(F)C(F)F
53	-26%	35µM*	3	-7%	3%	-2%	CN1CCN(c2ccccc2NC(=O)c2ccc(-c3cccc(Cl)c3)o2)CC1
54	-4%	1.4µM*	0	14%	2%	-4%	O=C(COc1ccccc1)Nc1nnc2n1CCS2
55	?	6.3µM*	1	1%	0%	-3%	COc1ccc(CNCC(=O)Nc2ccccc2-n2cccc2)cc1
56	-14%	45µM*	1	i	0%	0%	Cc1ccc(Nc2nc(N)nc(CN3CCN(Cc4ccc5c(c4)OCO5)CC3)n2)cc1Cl
57	10%	?	-16	-2%	4%	38%[activator]	Nc1nc(-c2c[nH]c3ccccc23)cs1
58	-14%	11µM*	-1	4%	-8%	-1%	CN(C)CCOc1ccc(C(C)(C)c2ccccc2)cc1
59	-6%	21%[2.33 µM]	-1	i	3%	10%	COc1ccc(OC)c2c(C)cc(N3CCN(C(=O)c4ccc(Cl)cc4)CC3)nc12
60	6%	?	-2	0%	0%	0%	NNC(=O)c1nc[nH]c1C(=O)Nc1ccccc1[N+](=O)[O-]

14 structures from above, sorted by SMILES length, lowest first.
no.	Pol eta inh	G9a block	PI4K2A block	PGK inhibitor	Pin1 inh	GLS inhibitor	canonical_smiles
57	10%	?	-16	-2%	4%	38%[activator]	Nc1nc(-c2c[nH]c3ccccc23)cs1
52	-9%	?	-2	0%	-3%	2%	O=C(Nc1ncn[nH]1)C(F)(F)C(F)F
48	-21%	16µM*	-2	3%	-5%	1%	O=C(CN1CCN(c2ncccn2)CC1)N1CCCC1
58	-14%	11µM*	-1	4%	-8%	-1%	CN(C)CCOc1ccc(C(C)(C)c2ccccc2)cc1
55	?	6.3µM*	1	1%	0%	-3%	COc1ccc(CNCC(=O)Nc2ccccc2-n2cccc2)cc1
49	-7%	5%	3	-3%	-4%	1%	O=C(CSc1ccc(-c2ccccn2)nn1)N1CCc2ccccc21
45	-15%	20µM*	3	0%	2%	-4%	COc1cccc(CN2CCN(C(=O)c3cccc(OC)c3)CC2)c1
44	-11%	4.5µM*	7	-8%	-6%	0%	COc1cc(C(=O)N2CCN(Cc3ccccn3)CC2)cc(OC)c1OC
60	6%	?	-2	0%	0%	0%	NNC(=O)c1nc[nH]c1C(=O)Nc1ccccc1[N+](=O)[O-]
53	-26%	35µM*	3	-7%	3%	-2%	CN1CCN(c2ccccc2NC(=O)c2ccc(-c3cccc(Cl)c3)o2)CC1
50	-16%	?	0	1%	-12%	11µM*	Cc1nc(C)c(/C(O)=C\c2nc3ccc([N+](=O)[O-])cc3oc2=O)o1
59	-6%	21%[2.33 µM]	-1	i	3%	10%	COc1ccc(OC)c2c(C)cc(N3CCN(C(=O)c4ccc(Cl)cc4)CC3)nc12
56	-14%	45µM*	1	i	0%	0%	Cc1ccc(Nc2nc(N)nc(CN3CCN(Cc4ccc5c(c4)OCO5)CC3)n2)cc1Cl
51	-26%	18µM*	6	-5%	1%	2%	Cn1c(-c2cccc([N+](=O)[O-])c2)cnc1NCc1cccc([N+](=O)[O-])c1
